Compound activity deposited in PubChem BioAssay by National Center for Advancing Translational Sciences (NCATS).
Rango dissoc inh: qHTS Assay for Inhibitors of RanGTP induced Rango (Ran-regulated importin-beta cargo) - Importin beta complex dissociation; AID 540253, 2011; hit rate 0.071% among 340,000; Biochemical FRET Rango-importin beta, RanGTP-induced dissociation; Potency, µM (series often up to 46.1 µM), for inactives: top-dose activity change, negative = inhibition; active means falling FRET ratio curve, often poorly fitted, with flat reads before Ran was added; inconclusive means other falling curves, or compound fluorescence or quenching; inactive means flat or rising ratio curve;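 further: potency means the concentration at half of the fitted maximal effect; % of control where 0% means no effect; nearly all actives have a fitted effect of over 45% in size; -100% = wells without RanGTP and RCC1; the record marks most hits as doubtful in a second field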
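Quantitative HTS using a FRET biosensor: 0.1 uM Rango, 0.25 uM importin beta, 0.6 uM Ran, 2 mM GTP, 0.2 uM RCC1 final, PBS with DTT, Tween-20 and BSA. Post-read taken 45 min after Ran addition.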
GLA inh pH 4.5: qHTS Assay for Inhibitors of Human alpha-Galactosidase at pH 4.5; Alpha-galactosidase A (Homo sapiens), P06280; purified enzyme, 4-MU-alpha-Gal fluorescence, pH 4.5; activity change, negative = inhibition, % at 105 µM; 230,000 tested, under 10 active; AID 1467, 2008; inconclusive = small, poorly fitted or top-dose-only inhibition, or a rising curve; inactive = flat fitted curve, though single readings scatter; no compound was filed as active;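 further: 0% = full activity with enzyme and -100% = basal without enzyme; dose as in the result columns while the protocol names 77 µM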
Target sequence (P06280 whole entry, looked up): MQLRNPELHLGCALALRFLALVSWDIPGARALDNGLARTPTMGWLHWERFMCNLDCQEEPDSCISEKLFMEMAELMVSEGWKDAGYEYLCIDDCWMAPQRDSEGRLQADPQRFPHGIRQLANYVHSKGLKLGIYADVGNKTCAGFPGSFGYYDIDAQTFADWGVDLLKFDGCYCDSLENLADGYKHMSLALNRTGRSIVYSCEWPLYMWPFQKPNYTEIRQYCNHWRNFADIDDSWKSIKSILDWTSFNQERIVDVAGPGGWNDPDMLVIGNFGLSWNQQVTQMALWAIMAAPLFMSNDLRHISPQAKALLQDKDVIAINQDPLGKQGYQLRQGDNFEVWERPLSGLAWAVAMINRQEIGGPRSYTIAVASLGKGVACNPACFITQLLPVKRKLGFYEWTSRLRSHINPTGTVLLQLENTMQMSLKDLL
miR-21 FLuc: qHTS Assay for Modulators of miRNAs and/orActivators of miR-21; AID 2288, 2010; 340,000 tested, under 10 active; HeLa miR-21 FLuc reporter, luciferase, 48 h; Potency, µM (titrated, usually from 38.3 µM), without a hit: at the top dose reporter change, positive = more light; active = well fitted rising curve with a large enough effect; inconclusive = small, poorly fitted or top-dose-only effect; inactive = no such curve, though single readings can be large or run the other way;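 further: % of control where 0% means no effect; miR-21 action dims this reporter so a rising signal means less miR-21 action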
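Compounds were titrated across several concentrations (up to approximately 40 uM) and incubated 48 hours with HeLa miR-21-FLuc reporter cells (miR-21 target sequence downstream of FLuc, endogenous miR-21). Readout was firefly luciferase luminescence after lytic detection reagent.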
Rango complex inh: qHTS Assay for Inhibitors of Rango (Ran-regulated importin-beta cargo) - Importin beta complex formation; AID 540263, 2011; Rango CFP/YFP FRET sensor + importin beta, 45 min; hit rate 0.031% among 340,000; Importin subunit beta-1 (Homo sapiens), Q14974; Potency, µM (highest dose often 92.2 µM), inactives show top-dose inhibition of complex formation; active = rising FRET ratio curve, often small or poorly fitted; inconclusive = mostly compound fluorescence or quenching in the first reads; inactive = flat curves in all reads;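 further: potency means the concentration at half of the fitted maximal effect; 0% = DMSO wells and 100% = buffer wells lacking importin beta; nearly all actives have a fitted effect of over 15% in size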
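FRET biosensor Rango (snurportin 1 IBB between N-terminal EYFP and C-terminal Cerulean), 50 nM in PBS/1 mM DTT/0.02% Tween-20/0.1% BSA, preincubated 5 min RT with compound; 0.125 microM importin beta added, 45 min RT, CFP/YFP FRET ratio read.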
* marks the source's active call; other numbers are inactive results; ? = inconclusive; nt = not tested or not shown; & = joins results of further samples.

Rango complex inh	Rango dissoc inh	miR-21 FLuc	GLA inh pH 4.5	Molecule
0.4%	-4.0%	nt	nt	Cc1sc2ncnc(N3CCC(C(=O)Nc4ccc(OC(F)F)c(Cl)c4)CC3)c2c1C
1.8%	-14.0%	3.8%	nt	COc1ccc(CN(C)C2CCN(C)CC2)cc1OC
-2.3%	12.4%	-4.0%	nt	O=C(COc1ccc(F)cc1)NCCN1CCCC1
?	-12.8%	11.9%	-8.9	CCCCCCC(=O)N1CCC(c2nc3c(nnn3Cc3ccccc3Cl)c(=O)[nH]2)CC1
-1.3%	1.4%	-2.4%	-8.5	CSc1ccc(C(=O)C2CCCN(C(=O)c3ccc(C)nc3)C2)cc1 (stereo unspecified)
-0.7%	2.0%	-6.3%	-2.9	Cc1c(Cl)c([N+](=O)[O-])nn1CC(=O)N1CCc2ccccc2C1
0.2%	20.1%	-0.5%&-18.8%	nt	COc1ccc(NS(=O)(=O)c2cc3c(cc2C)NC(=O)CO3)c(OC)c1
0.7%	?	-3.1%	-21.0	O=C(c1ccc(F)cc1)N1CCCN(c2nc(-c3ccccc3)ns2)CC1

Full records, quoted from the list.
`Cc1sc2ncnc(N3CCC(C(=O)Nc4ccc(OC(F)F)c(Cl)c4)CC3)c2c1C` is listed with Rango complex inh: 0.4%; Rango dissoc inh: -4.0%; miR-21 FLuc: nt; GLA inh pH 4.5: nt
`COc1ccc(CN(C)C2CCN(C)CC2)cc1OC` is listed with Rango complex inh: 1.8%; Rango dissoc inh: -14.0%; miR-21 FLuc: 3.8%; GLA inh pH 4.5: nt

(list continues)
Rango complex inh	Rango dissoc inh	miR-21 FLuc	GLA inh pH 4.5	Molecule
-1.8%	10.1%	-0.9%	nt	O=C(Nc1cccc(-c2cscn2)c1)C1CCN(Cc2ccc(CO)o2)CC1
1.9%	12.0%	-33.5%	-8.6	Cc1cc(Nc2ccc(Cl)cc2)nc(N2CCOCC2)n1
-0.7%	0.5%	-42.8%	nt	CNC(=O)c1[nH]nc2c1CCc1cc(OC)ccc1-2
?	?	-12.3%	-17.1	CC1CCN(Cc2c(O)ccc3c2O/C(=C\c2ccco2)C3=O)CC1
-0.7%	-26.5%	-25.5%	5.7	c1csc(Cc2nn3c(-c4n[nH]c5c4CCC5)nnc3s2)c1
-1.0%	7.9%	-5.7%	-5.3	N#CCSc1nc2cc(C(=O)N3CCCC3)ccc2c(=O)n1Cc1ccccc1
-1.0%	0.1%	-19.9%	-3.3	O=C1Nc2ccccc2C(O)(C(=O)NCc2ccco2)N1c1ccc(Cl)cc1 (stereo unspecified)
4.1%	-12.9%	-28.1%	-13.7	Cc1cc(/C=N\NC(=O)c2cccs2)c(C)n1-c1ccc2ncccc2c1
-2.5%	-0.7%	0.0%	nt	COc1cc(C(=O)NCC2(c3ccccc3)CCCC2)cc(OC)c1OC
3.4%	5.5%	0.1%	nt	O=[N+]([O-])c1ccc(Oc2ccc(OCc3ccccc3)cc2)nc1
0.4%	2.3%	0.8%	0.1	COc1ccc(NCC(=O)Nc2ccc(Br)cc2F)c(OC)c1
0.0%	1.3%	-1.1%	-4.9	Cc1cccc(C)c1NC(=O)CN(c1ccccn1)S(=O)(=O)c1ccccc1
6.9%	6.9%	0.1%	nt	Cn1ncc(Br)c1C(=O)NC1CCCCCC1
nt	nt	-11.0%	1.1&1.8	COC(=O)[C@@]1(Cc2ccccc2)[C@H]2c3cc(C(=O)N4CCCC4)n(CCSCCO)c3C[C@H]2CN1C(=O)c1ccccc1
-1.2%	-7.8%	-1.1%	-5.1	CC1=C(C#N)C(NC(=O)C2CC2)(C(F)(F)F)C(=O)N1 (stereo unspecified)
2.7%	7.0%	3.7%	7.6	CC(C)(C)S(=O)(=O)c1c(C(=O)O)cccc1C(=O)O
-0.8%	10.4%	-7.3%	1.1	Cc1n[nH]c(C)c1CCN(C)Cc1cn(C)nc1-c1ccc2c(c1)OCCO2
0.0%	0.7%	-2.4%	-16.2	COc1ccccc1C1CCN(c2cc(O)ccc2[N+](=O)[O-])CC1
-2.2%	6.8%	-0.6%	-4.6	CCOC(=O)NNS(=O)(=O)c1cc(Br)ccc1Br
-0.6%	4.7%	-2.1%	-5.7	CCO[C@@H]1OC(C(=O)Nc2ccccc2)=C[C@H](c2ccc3c(c2)OCO3)[C@H]1CCCO
?	-5.7%	-1.2%	6.7	CC(C)c1[nH]nc2c1C(Cc1ccccc1)C(C#N)=C(N)O2 (stereo unspecified)
-3.7%	-9.2%	nt	nt	Cc1nn(-c2ccc(F)cc2)c(Cl)c1/C=C(/CCC(=O)O)c1nc2ccccc2s1
0.1%	10.3%	-4.9%	2.3	NNC(=O)C(=O)Nc1ccc(Cl)c(Cl)c1
-2.5%	9.7%	-46.7%	3.8	Cc1cc(C)n(-c2nnc(NC(C)(C)C)nn2)n1
2.9%	14.2%	2.4%	-4.9	COc1ccccc1N1CCN(C(=O)/C=C/c2cccc([N+](=O)[O-])c2)CC1
2.3%	9.6%	-2.3%	nt	COc1ccc(CCN2CC(C(=O)N3CCC(O)(c4ccccc4)CC3)CCC2=O)cc1 (stereo unspecified)
-3.4%	18.9%	nt	nt	C=C1C(O)[C@@H]2O[C@]3(CC[C@H](/C=C/C(C)[C@@H]4CC(C)=CC5(O[C@H](C[C@@](C)(O)CO)CCC5O)O4)O3)CC[C@H]2O[C@@H]1C(O)CC(C)[C@H]1OC2(CCCCO2)CCC1C (stereo partly specified)
4.5%	15.4%	-1.9%	nt	CN1CCN(c2oc(-c3ccccc3F)nc2S(=O)(=O)c2ccc(Cl)cc2)CC1
1.9%	9.6%	-32.2%	nt	Fc1ccc(/C=N/Nc2nccnc2Cl)cc1
?	-3.1%	6.0%	nt	CCC(=O)Nc1cc2c3c(c1)CCC(=O)N3CCC2
-1.0%	1.7%	-0.6%	-0.3	COc1ccc(OC)c(S(=O)(=O)N2CCC(C(=O)NCC3CCCO3)CC2)c1 (stereo unspecified)
-2.1%	16.6%	0.2%	4.2	CCOC(=O)c1nc2nc(C)c(Cl)c(=O)n2[nH]1
0.1%	15.1%	1.7%	nt	COc1ccc(CNC(=O)[C@H](NC(=O)C2CCN(C(=O)[C@@H](N)CCSC)CC2)C(C)C)cc1
-1.3%	-9.9%	0.4%	11.7	O=C(COc1ccccc1)Nc1ccc(CSc2ccccc2)cc1
?	?	-2.3%	-2.0	Cc1ccc(N=C/C(C(=O)C(F)(F)F)=C(\O)c2cccs2)cc1
2.3%	-1.7%	-6.3%	nt	Cc1ccc(C(=O)NCCCNC(=O)c2cccnc2)cc1
2.8%	-5.7%	nt	nt	CCOc1ccc(NC(=O)CN(C)C(=O)c2ccc(N3CCCC3)c([N+](=O)[O-])c2)cc1OCC
5.9%	-2.5%	-8.8%	-1.7	CC(C)(C)c1ccc(S(=O)(=O)NCc2ccc(C(=O)NCc3ccccn3)cc2)cc1
1.6%	14.9%	-8.1%	1.1	CC(C)(C)c1csc(NC(=O)Cn2cnc3ccccc3c2=O)n1
-0.2%	1.4%	0.4%	-20.0	CC(C)CCNC(=O)c1c(CSc2ccccc2)noc1C(=O)NCc1ccccc1
3.2%	-10.6%	14.8%	-0.2	CCc1nc(N2CCN(C(=O)c3ccccc3)CC2)c2c3c(sc2n1)CCCC3
-1.2%	18.8%	0.1%	1.7	CCCCS(=O)CC(O)COCC (stereo unspecified)
1.5%	1.7%	-5.8%	nt	COc1cc(C)ccc1Oc1ncnc(N)c1[N+](=O)[O-]
6.0%	-0.4%	3.3%	nt	O=C(c1cc(-c2ccncc2)nc2ccccc12)N1CCN(c2ccccc2O)CC1
?	?	-9.5%	10.8	COc1cc2c(cc1OC)C1=C(C#N)COCN1CC2
4.9%	-12.8%	nt	nt	O=S(=O)(Nc1ccc(-c2ccc(NS(=O)(=O)c3ccccc3)cc2)cc1)c1ccccc1
2.9%	4.1%	-6.1%	3.8	Cc1cc(C)nc(SCC(=O)Nc2ncc(Cc3cccc(Cl)c3)s2)n1
3.4%	39.8%	-3.7%	nt	CN(c1cccc(NC(=O)c2ccccc2N(Cc2ccccc2)S(C)(=O)=O)c1)S(C)(=O)=O
0.2%	8.3%	-34.2%	nt	Cc1cc(C)n2nc(SCc3ccc(F)cc3Cl)nc2n1
-0.7%	24.8%	-9.8%	-4.7	Cc1cc(C)cc(OCCCOc2cccc3cccnc23)c1
?	?	-28.2%	4.8	CCCn1c(C)cc(C(=O)CN2C(=O)c3cccc(N)c3C2=O)c1C
5.7%	13.1%	-5.6%	5.2	Cc1cc2cc(C)c3nnc(SCC(=O)Nc4ccc(S(=O)(=O)N5CCCCC5)cc4)n3c2cc1C
-5.2%	1.0%	-7.6%	nt	CCc1cccc(NC(=O)CCCn2nc(CC)n3c(cc4occc43)c2=O)c1
2.4%	9.0%	nt	nt	CCOc1ccc(NC(=O)CCC(=O)NNC(=O)c2cccc([N+](=O)[O-])c2)cc1
-4.5%	4.2%	-19.2%	nt	Cc1ccc2c(c1)CCCN2C(=O)CSc1ccccc1
-5.6%	12.6%	0.9%	-13.5	COc1ccc(/C=C/C(=O)O)cc1S(=O)(=O)NCC1CCCO1 (stereo unspecified)

Later entries
Rango complex inh	Rango dissoc inh	miR-21 FLuc	GLA inh pH 4.5	Molecule
2.2%	0.5%	0.1%	nt	CC1CCCCN1CC(O)COc1ccc(OCC(O)CN2CCCCC2C)cc1 (stereo unspecified)
-0.3%	2.9%	-23.3%	-5.7	COc1cccc(Nc2ccc(Nc3cccc(OC)c3)nn2)c1
0.8%	-9.6%	-13.1%	nt	Cc1ccc(NC(=O)COc2ccc(/C=N\NC(=O)c3cccnc3)cc2)cc1C
1.9%	30.9%	-3.4%	nt	COc1ccc(CNC(=O)CSc2n[nH]c(N)n2)cc1OC
0.9%	2.4%	3.0%	nt	CC(C)n1c(SCC(=O)Nc2ccc(F)cc2)nnc1C1CC1
0.1%	-15.7%	-3.8%	1.4	Cc1cc(NC(=O)c2ccc3c(c2)C(=O)N(Cc2cccnc2)C3=O)no1
0.0%	-9.1%	nt	nt	CC1(C)COC(c2cccc([N+](=O)[O-])c2)OC1
-1.3%	-9.3%	0.1%&-2.3%	nt	COc1cccc2c1Oc1ncccc1N(C(=O)CCC(=O)NCc1ccc(C)cc1)C2
?	-3.3%	-0.6%	-12.4	O=C(CN1CCN(S(=O)(=O)c2ccc(F)cc2)CC1)c1ccc(O)c(O)c1
2.0%	-13.8%	-40.2%	4.5	Cc1cc(C)cc(OCC(=O)O/N=C(\N)c2ccccn2)c1
0.9%	4.1%	-10.4%	3.5	COc1ccc(-c2csc(NC(=O)CN3C(=O)CCC3=O)n2)c(OC)c1
-1.2%	-15.0%	0.7%	7.5	Cc1ccc(NC(=O)c2ccc(NCCc3ccccc3)c([N+](=O)[O-])c2)cc1F
-1.6%	-16.6%	-25.1%	-0.4	CCn1c(SCC(=O)N(Cc2ccccc2)C2CCS(=O)(=O)C2)nc2ccccc2c1=O (stereo unspecified)
0.2%	2.1%	16.6%	-4.5	COc1ccc(N(CC(O)Cn2c3ccccc3c3ccccc32)S(=O)(=O)c2ccccc2)cc1 (stereo unspecified)
6.0%	-4.9%	0.0%	-3.8	COC(=O)[C@H](Cc1ccccc1)NC(=O)NCc1ccc(C)cc1
-1.0%	15.7%	-6.8%	nt	Cc1cccc(OCC(=O)NCc2nc(-c3ccccc3)no2)c1
-0.2%	-10.0%	-12.2%	-17.0	CC(=O)c1c(C)nc2cc(Cl)ccc2c1N
1.8%	23.6%	-1.6%	nt	Cc1onc(-c2ccccc2)c1C(=O)Nc1ccc(C(=O)N2CCCCC2)cc1
0.5%	11.1%	-5.3%	-2.6	O=S(=O)(NCC1CCCO1)c1cc(Cl)ccc1Br (stereo unspecified)

Only part of the results is shown. The share of hits here may be higher or lower than overall.
